Arbovirus anti: antivirals against arbovirus infection. inhibition, % at 10 µM. 200,000 compounds, 0.37% hits. arbovirus infection cell-based antiviral screen;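 active means inhibition from about 30%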;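 further: bluetongue infection of BSR cells; cell survival read as ATP light after 72 h; 0% = infected wells without compound and 100% = uninfected wells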
Mtb growth: M. tuberculosis H37Rv growth inhibitors, H37Rv strain (AID 1626) | M. tuberculosis H37Rv growth inhibition; higher % means a stronger effect | inhibition, % at 10 µM, or IC50 in µM where a hit was titrated | 220,000 compounds, 0.95% hits;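 active means confirmed in a dose series; inconclusive means inhibition above 80% but not taken into the dose series; inactive means below 80% or under 30% at every dose of the series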;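 further: bacteria incubated seven days before Alamar blue readout; 0% = bacteria only wells and 100% = bacteria with antibiotic wells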
Mtb betalactam: beta-lactam sensitization of Mtb H37Rv; M. tuberculosis H37Rv growth with meropenem, percent inhibition; hits of this screen are not shown here; 330,000 compounds, 0.27% hits; inhibition, % at 25 µM;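 active means about 74% or more and at least 40 points above the plate without the antibiotic, then above 30% in a dose series; inconclusive means first-round hits that could not be retested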;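 further: growth measured after seven days incubation then overnight dye step; 0% = bacteria only wells and 100% = bacteria with antibiotic; twin plates without the antibiotic show which effects depend on it; some results filed as inactive read as strong as hits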
RecA splice inh: inhibitors of M. tuberculosis RecA intein splicing; inhibition, %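 (about 9 µM by stock and volumes)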; cell-free RecA intein splicing, fluorescence; 290,000 compounds, 0.75% hits; AID 2221; in the data active means inhibition above about 30%; inconclusive means no clear call, values can overlap the other calls;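 further: 0% = vehicle wells and 100% = reference inhibitor control wells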
Target sequence (P9WHJ3 whole entry, looked up, canonical isoform): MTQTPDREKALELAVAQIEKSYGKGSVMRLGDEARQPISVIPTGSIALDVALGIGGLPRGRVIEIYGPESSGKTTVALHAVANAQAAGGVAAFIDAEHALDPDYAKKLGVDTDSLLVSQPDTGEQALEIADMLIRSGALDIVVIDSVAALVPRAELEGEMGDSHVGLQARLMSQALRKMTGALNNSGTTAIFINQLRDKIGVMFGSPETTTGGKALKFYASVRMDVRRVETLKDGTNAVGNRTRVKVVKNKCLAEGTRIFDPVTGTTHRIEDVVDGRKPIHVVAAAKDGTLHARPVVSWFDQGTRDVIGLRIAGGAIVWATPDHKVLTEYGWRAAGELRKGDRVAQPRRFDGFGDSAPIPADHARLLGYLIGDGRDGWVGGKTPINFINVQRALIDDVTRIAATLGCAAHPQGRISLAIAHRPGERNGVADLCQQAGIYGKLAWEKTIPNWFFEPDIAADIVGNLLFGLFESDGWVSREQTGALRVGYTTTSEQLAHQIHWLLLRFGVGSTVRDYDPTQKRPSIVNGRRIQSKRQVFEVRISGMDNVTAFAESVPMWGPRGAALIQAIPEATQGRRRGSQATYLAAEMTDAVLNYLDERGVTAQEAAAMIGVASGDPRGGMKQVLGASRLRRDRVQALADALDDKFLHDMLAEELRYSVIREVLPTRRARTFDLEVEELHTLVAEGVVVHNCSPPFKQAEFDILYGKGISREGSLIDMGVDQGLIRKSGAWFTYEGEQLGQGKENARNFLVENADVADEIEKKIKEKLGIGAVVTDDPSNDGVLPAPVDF
YopH inh: inhibitors of Yersinia enterocolitica YopH tyrosine phosphatase. 140,000 compounds, 0.16% hits. inhibition, %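 (about 10 µM by stock and volumes)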. fluorescence Ex485/Em525. AID 898;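 active means inhibition of 50% or more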;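 further: controls were vehicle for no effect and minimum signal wells for full effect; inactives centre near -20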
Arbovirus anti repeat: also measured in Arbovirus anti; calls as there; inhibition, %; measured here: 10K subset replicate screen; many hits read low in the repeat;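 first of two repeat runs on a subset; 0% = infected and 100% = uninfected wells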
* hit, by the source's call; u = inconclusive; x = not tested or not shown. These rows are one share of the data; the hit share may differ from the screen's.

SMILES	Arbovirus anti	Mtb growth	Mtb betalactam	RecA splice inh	YopH inh	others
O=C(Nc1ccccc1)Nc1ccc(Br)cc1F	7	u	-3	-4.7	-29
Cc1ccc(OCc2nnc(-c3ccc(Cl)cc3)o2)cc1	x	x	5	0.7	x
CC1(C(=O)NCC2CC2)C=CC2(CCCCC2)N1C(=O)c1ccccc1 (configuration not stated)	x	x	-10	-3.5	x
COC(=O)c1cc(OC)c(OC)cc1NC(=S)Nc1cc(Cl)ccc1OC	-1	-12%	-4	-1.2	-20
O=Cc1cn(-c2ccccc2)nc1-c1ccccn1	x	x	1	-1.2	x
Cc1ccc2c(c1)CC1(CN2C)C(=O)NC(=O)N(C(C)C)C1=O (configuration not stated)	-7	-6%	4	-3.0	-7
COc1cccc(CNC(=O)C2CCC(CNc3nc(=S)[nH]c4ccccc34)CC2)c1 (configuration not stated)	-3	1%	2	0.1	x
CC(=O)Nc1ccc(/C(C)=N/NC(=O)CN(c2ccccc2Br)S(C)(=O)=O)cc1	0	1%	1	1.0	-20
COc1ccccc1CC(=O)NNC(=O)CN(C)S(=O)(=O)c1ccc(Cl)cc1	x	x	-11	-1.0	x
Cc1cc(F)ccc1S(=O)(=O)Nc1ncnc2sccc12	1	4%	-8	-0.8	x
CSc1nnc(-c2sccc2OCc2ccc(C)cc2)n1C	-11	4%	9	-0.5	-37
O=C(Nc1ccc(C(=O)N2CCCC2)cc1)c1ccccc1F	-7	-2%	x	0.6	-34

Sorted by formula weight (low to high): part of the list above.
SMILES	Arbovirus anti	Mtb growth	Mtb betalactam	RecA splice inh	YopH inh	others
O=C(Nc1ccccc1)Nc1ccc(Br)cc1F	7	u	-3	-4.7	-29
CC1(C(=O)NCC2CC2)C=CC2(CCCCC2)N1C(=O)c1ccccc1 (configuration not stated)	x	x	-10	-3.5	x
COc1ccccc1CC(=O)NNC(=O)CN(C)S(=O)(=O)c1ccc(Cl)cc1	x	x	-11	-1.0	x
CC(=O)Nc1ccc(/C(C)=N/NC(=O)CN(c2ccccc2Br)S(C)(=O)=O)cc1	0	1%	1	1.0	-20

The list goes on:
SMILES	Arbovirus anti	Mtb growth	Mtb betalactam	RecA splice inh	YopH inh	others
COc1ccc(C(=O)NC(=S)Nc2ccc(NC(=O)c3ccco3)cc2)cc1[N+](=O)[O-]	-5	6%	-3	0.9	-13
O=C(c1cc2n(n1)C(C(F)(F)F)CC(c1ccco1)N2)N1CCN(c2ccccn2)CC1 (configuration not stated)	1	-19%	-6	0.0	-21
CN(Cc1ccccn1)Cc1cn(Cc2ccccc2)nc1-c1ccc2c(c1)OCO2	10	5%	71	-0.6	x
COc1ccc(C(CNC(=O)c2cncc(Br)c2)N(C)C)cc1 (configuration not stated)	-1	1%	-3	1.9	x
O=C(NCC(=O)N(Cc1ccccc1)C(C(=O)NC1CCCCC1)c1ccco1)c1ccco1 (configuration not stated)	-12	6%	4	0.4	-3
O=C(Nc1cccc2ccccc12)c1onc2c1CCCC2	-4	13%	15	-3.4	-6
CCN(c1ccccc1)S(=O)(=O)c1ccc(Cl)c(NC(=O)COC(=O)c2cc(O)c3ccccc3c2O)c1	x	-8%	-3	80*	x
CN1C(=O)/C(=C/c2ccc(Cl)s2)C(=O)NC1=S	x	x	0	-4.1	x
CC1CCC(NC(=O)C2CC(=O)N(c3ccc(Cl)cc3)C2)CC1 (configuration not stated)	x	x	-6	0.2	x
COc1ccc(OCc2cccc(C(=O)N3CCCC3)c2)cc1	0	11%	-9	-0.6	-8
Cc1cc(C(=O)Cn2cnc3cc([N+](=O)[O-])ccc3c2=O)c(C)n1CC1CCCO1 (configuration not stated)	7	-7%	-6	2.6	x
CC(NC(=O)CNC(=O)c1ccco1)c1ccc(S(N)(=O)=O)cc1 (configuration not stated)	x	x	-4	-1.9	x
COc1ccc(NC(=O)c2cccc(N3C(=O)C4C5C=CC(C5)C4C3=O)c2)cc1 (configuration not stated)	x	x	-15	0.2	x
CCOC(=O)c1c(C)[nH]c(C(=O)N2CCN(c3ccc(OC)cc3)CC2)c1C	1	11%	2	5.7	x
CCOc1ccc(NC(=O)CC(C)S(=O)(=O)c2ccc3c(c2)NC(=O)CO3)cc1 (configuration not stated)	x	x	-4	0.4	x
O=C(Nc1cnccn1)Nc1ccccc1F	x	x	-15	-1.4	x
COc1ccc(N(CC(=O)NCCSc2ccccn2)S(C)(=O)=O)cc1Cl	4	-9%	-9	1.9	-54	Arbovirus anti repeat=3
CC(=O)c1cccc(NC(=O)c2ccco2)c1	5	6%	0	x	-24
O=[N+]([O-])c1ccc(NC(=S)N2CCOCC2)cc1	2	-3%	-6	0.1	-27
COc1ccccc1CC1CC(=O)N(c2ccccc2)C1=O (configuration not stated)	x	x	-6	-1.0	x
Cc1ccc(C)c(-n2cc(CNCCCn3cccn3)c(-c3ccccc3)n2)c1	-22	-2%	-4	2.3	x
CC(c1ccc(F)cc1)n1c(Cn2ncc3ccccc3c2=O)n[nH]c1=S (configuration not stated)	23	-5%	-9	-2.2	x
c1ccc(-c2nnc(CN3CCN(C(c4ccccc4)c4ccccc4)CC3)o2)cc1	3	-3%	-8	12	x
Cc1sc(NC(=O)c2ccccc2F)c(CN2CCCCC2)c1C	13	8%	0	0.4	-12
C=CCn1c(NCc2ccco2)nc2ccccc21	x	x	-8	2.1	x
CCOc1ccccc1NC(=O)CNC(=O)N1CC(=O)Nc2ccccc21	x	x	-3	0.1	x
COc1ccc(OC)c(-c2csc(NC(=O)Cc3ccc(OC)c(OC)c3)n2)c1	x	x	-4	3.9	x
CCOc1ccc(C(c2nnnn2C(C)(C)C)N2CCN(C(=O)c3ccco3)CC2)cc1 (configuration not stated)	x	x	0	4.4	x
Cc1ccsc1C1Nc2ccccc2-c2nc3ccccc3n21 (configuration not stated)	18	2%	2	-11	-16
O=C(CSc1nnc(CNC(=O)c2cccs2)o1)Nc1ccc(Br)cc1	x	x	0	-7.4	x
Cc1nn(C)c(C)c1/C=C/C(=O)c1cccs1	-7	-2%	6	5.8	-21
CCc1nccn1CCC(=O)N1CCCC(N2CCN(c3ccccc3C)CC2)C1 (configuration not stated)	x	x	3	-3.8	x
c1ccc2c(c1)[nH]c1nc(SCCN3CCOCC3)nnc12	4	2%	-8	-0.1	-29
O=C(NCCc1c[nH]c2ccccc12)OCCCCOC(=O)NCCc1c[nH]c2ccccc12	x	x	-2	7.8	x
Cc1ccc(C(=O)N2CCN(C)CC2)cc1[N+](=O)[O-]	x	x	1	-1.0	x
N/C(=N\OC(=O)Nc1cccc(C(F)(F)F)c1)c1ccno1	x	-2%	-3	-1.2	x
O=C1C2ON(c3ccccc3)C(c3ccccc3F)C2C(=O)N1c1ccccc1 (configuration not stated)	1	-1%	1	-1.5	-15
O=C(N/N=C\c1cccs1)c1ccccc1-n1cccc1	-1	-4%	-3	-2.1	x
COc1ccc(OC)c(NC(=O)CNC(=O)c2cccs2)c1	5	-2%	-8	-1.8	-11
O=C(O)/C=C\c1cccc(-n2cnnn2)c1	11	-2%	0	-1.3	-28
COC(=O)c1cc(OC)c(OC)cc1NC(=S)Nc1cccc(Cl)c1	3	11%	-1	1.4	-20
CC(=O)Nc1ccc(-c2nc3c(C)cccc3[nH]2)cc1	8	-3%	-5	-3.6	29
O=c1cc(N2CCN(c3ccccc3)CC2)[nH]c(=O)n1Cc1ccc(F)cc1	0	13%	4	3.3	-33	Arbovirus anti repeat=-8
Cn1c(=O)c(=O)n(C)c2cc([N+](=O)[O-])c([N+](=O)[O-])cc21	-22	2%	-3	-0.5	x
Cc1nnc(SC(C)C(=O)Nc2ccc(Cl)cn2)n1Cc1ccccc1 (configuration not stated)	-36	-6%	-1	3.4	-21
CCOC(=O)Cc1csc(NC(=O)CSc2nnc(-c3ccc(OC)cc3)n2C)n1	5	-10%	-6	-1.3	-39
COc1ccc(N2CCN(C3CC(=O)NC3=O)CC2)cc1 (configuration not stated)	1	1%	1	0.2	-43
CC1=CC(C)(C)Nc2ccc(OC(=O)C(C)N3C(=O)c4ccccc4C3=O)cc21 (configuration not stated)	-40	-10%	-7	-16	9
O=c1c(Cl)c(NCCCO)cnn1-c1nc2ccccc2[nH]1	-38	4%	85	44*	-12
Cc1ccc(C)c(S(=O)(=O)N2CCCC2CNC(=O)C(=O)NC2CCCC2)c1 (configuration not stated)	x	x	-11	-2.2	x
O=C(N/N=C/c1ccncc1)C1CC1(c1ccccc1)c1ccccc1 (configuration not stated)	x	8%	1	2.2	x
CCCC(C)NC(=O)c1cc(Cl)ccc1OC (configuration not stated)	-2	6%	-8	-3.3	-21
N/C(=N\OS(=O)(=O)c1ccc(Br)cc1)c1ccncc1	0	-1%	3	-2.8	-19
C/C(=N\Nc1nc2ccccc2s1)c1ccc(Br)s1	-21	73%	100	-1.5	x
O=S(=O)(c1ccccc1F)N1CCN(CC(O)c2ccccc2)CC1 (configuration not stated)	5	3%	2	-0.2	x
O=C(NCC1CCCO1)c1cc2ccccc2oc1=O (configuration not stated)	0	1%	1	-6.6	x
O=S(=O)(Nc1cccnc1Cl)c1ccc(F)cc1	x	x	-2	-1.5	x
Cc1cccc(NC(=S)NCC(c2cccnc2)N(C)C)c1 (configuration not stated)	5	1%	3	-2.3	-20
COC(=O)c1cc(NC(=O)c2cccnc2)ccc1N1CCOCC1	-1	-9%	-4	-1.7	x
O=C(OCC(=O)C12CC3CC(CC(C3)C1)C2)c1ccccn1	x	x	12	1.5	x

Fetched by compound from the list above (seven):
SMILES	Arbovirus anti	Mtb growth	Mtb betalactam	RecA splice inh	YopH inh	others
O=C(Nc1cccc2ccccc12)c1onc2c1CCCC2	-4	13%	15	-3.4	-6
c1ccc2c(c1)[nH]c1nc(SCCN3CCOCC3)nnc12	4	2%	-8	-0.1	-29
CCOc1ccc(NC(=O)CC(C)S(=O)(=O)c2ccc3c(c2)NC(=O)CO3)cc1 (configuration not stated)	x	x	-4	0.4	x
COc1ccc(OC)c(NC(=O)CNC(=O)c2cccs2)c1	5	-2%	-8	-1.8	-11
COc1ccc(NC(=O)c2cccc(N3C(=O)C4C5C=CC(C5)C4C3=O)c2)cc1 (configuration not stated)	x	x	-15	0.2	x
Cn1c(=O)c(=O)n(C)c2cc([N+](=O)[O-])c([N+](=O)[O-])cc21	-22	2%	-3	-0.5	x
CC(=O)c1cccc(NC(=O)c2ccco2)c1	5	6%	0	x	-24

(list continues)
SMILES	Arbovirus anti	Mtb growth	Mtb betalactam	RecA splice inh	YopH inh	others
O=C(O)C1CN(c2nc(Cl)ccc2[N+](=O)[O-])C1	1	5%	-6	-0.6	x
CCCCC(=O)Nc1ccc(C(=O)NNC(=S)NC(=O)c2ccco2)cc1	-6	67%	20	-0.1	x
O=C(CC(C(=O)O)C1CCCO1)NCc1ccccc1 (configuration not stated)	8	1%	-5	-0.7	-37
O=Cc1cc2cc3c(cc2nc1Cl)OCCO3	x	3%	-5	2.2	x
COc1ccc(-n2nc(C(=O)NCC(=O)Nc3cc(OC)ccc3OC)c3ccccc3c2=O)cc1	x	x	0	-0.8	x
O=C(NCCc1ccccn1)C1CCCN(S(=O)(=O)Cc2ccccc2)C1 (configuration not stated)	10	-3%	-14	-0.7	8
CCOC(=O)Cc1nnc(NC(=O)CSc2ccccc2)s1	8	4%	3	3.8	5
Cc1cc(C)n(-c2cc(C)c(C)cc2Br)n1	-2	-7%	-5	-0.4	-2
FC(F)(F)c1ccc(N2CCN(c3cc(-c4ccccc4)nc4ncnn34)CC2)nc1	3	3%	60	1.7	-45
COc1ccc(NS(=O)(=O)c2ccc(NC(=O)c3ccc(N(C)S(C)(=O)=O)cc3)cc2)c(OC)c1	1	2%	-1	-2.3	-30
COc1ccc(CCNC(=O)C(=O)NCC2OCCN2S(=O)(=O)c2cccs2)cc1OC (configuration not stated)	x	x	-3	0.3	x
CCSc1sc(CC)cc1C=O	2	-2%	-1	-1.3	x
CCOC(=O)c1oc2ccccc2c1CN1CCN(c2ccccc2)CC1	5	12%	10	7.5	-23
CCOc1ccc(NC(=S)NC23CN4CN(CN(C4)C2)C3)cc1	5	u	96	1.5	x
Cc1cc(C)cc(N2C(=O)CC(n3nc(C)cc3C)C2=O)c1 (configuration not stated)	-2	-6%	-1	-1.1	-51
Cc1cc(C)c2c(n1)sc1c(N3CCCCC3)ncnc12	x	17µM*	20	-1.8	x
O=S(=O)(c1cccc(C(F)(F)F)c1)N1CCN(C(=S)NCc2ccco2)CC1	11	-1%	1	-0.6	-14
O=C(NCc1cccnc1)C(=O)C1C(=O)Nc2ccccc21 (configuration not stated)	x	-4%	-8	-2.3	x
CC(Nc1nc2ccccc2n2cnnc12)c1ccccc1 (configuration not stated)	x	-4%	-6	2.4	x
CCOC(=O)c1cnc(SCc2ccccc2)nc1N	1	11%	-2	2.6	-20
CC(/C=N/NC(=O)c1cc(C2CC2)[nH]n1)=C\c1ccccc1	x	3%	-2	0.3	x
O=C(CN1C(=O)C2C3C=CC(C3)C2C1=O)NCCc1ccccc1Cl (configuration not stated)	1	9%	-6	-0.1	-44
